NS1 function inh = qHTS Assay for Inhibitors of Influenza NS1 Protein Function; hit rate 0.4% among 270,000; S. cerevisiae slowed by influenza A NS1, growth recovery by OD600; Potency, µM (titrated, usually from 46.1 µM), inactives show at the highest dose activity, positive = more growth; further: actives are rising curves; nearly all actives have a fitted effect of over 50% in size
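In this qHTS, NS1 from influenza A is expressed in budding yeast, where it slows growth. Cells are switched from glucose to 2% galactose medium (pH 6.0, -URA), treated with compound, and growth recovery is read at OD600.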
2A StopGo = High Throughput Screening for Foot and Mouth Disease Virus Antivirals; human cells with a luciferase reporter of 2A StopGo recoding; control for the full effect not named in the record; Potency, µM (titrated, usually from 57.9 µM), for inactives: top-dose signal change, negative = less light; hit rate 1.2% among 410,000; active = well fitted falling curve with a large enough effect; inconclusive = small, poorly fitted or top-dose-only effect; inactive = no such curve, though single readings can be large or run the other way; tested in HEK293T cells; further: on the % scale 0 is the no-effect control and ±100 the full control effect; nearly all actives have a fitted effect of over 45% in size; luciferase light after 4 h
Marburg entry inh = qHTS for inhibitors of binding or entry into cells for Marburg Virus; Marburg virus pseudotyped entry inhibition, cell reporter; control for the full effect not named in the record; about a third of the inactives were read at about 46 µM; Potency, µM (titrated, usually from 37.8 µM), for the others: at the top dose activity change, negative = inhibition, actives largely listed as inhibitors; hit rate 1.8% among 300,000; active = well fitted inhibition curve with a large enough effect; inconclusive = small, poorly fitted or top-dose-only effect, or effect the other way; inactive = flat fitted curve, though single readings scatter; tested in HEK293 cells; about a fifth of its hits are not listed in these tables; further: on the % scale 0 is the no-effect control and ±100 the full control effect; luciferase read-out
SARS PLpro yeast = qHTS of Yeast-based Assay for SARS-CoV PLP. Potency, µM (top dose mostly 32.9 µM), for the others: at the top dose activity, positive = growth rescue. S. cerevisiae expressing SARS-CoV PLpro, growth rescue; control for the full effect not named in the record. hit rate 0.19% among 330,000. AID 485353, 2010; further: 0% is about no effect; nearly all actives have a fitted effect of over 55% in size; growth read by luminescence after 48 h
Cruzain noTriton = qHTS Assay for Promiscuous and Specific Inhibitors of Cruzain (without detergent) | purified cruzain, Z-FR-AMC fluorescence, no detergent | Potency, µM, inactives show max response, negative = inhibition, most hits filed as inhibitors | hit rate 2.3% among 200,000 | AID 1476, 2009; active means well fitted curve in the direction sought with a large enough effect; inconclusive means small, poorly fitted or top-dose-only effect, or another doubt; inactive means no such curve, though single readings can be large; an effect the other way counts as inactive or inconclusive;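 further: plate controls were enzyme without inhibitor for no effect and buffer without enzyme for full effect; nearly all actives have a fitted effect of over 40% in size; top concentration of the series not given in the record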
Target sequence (P25779 123-467 limits assumed): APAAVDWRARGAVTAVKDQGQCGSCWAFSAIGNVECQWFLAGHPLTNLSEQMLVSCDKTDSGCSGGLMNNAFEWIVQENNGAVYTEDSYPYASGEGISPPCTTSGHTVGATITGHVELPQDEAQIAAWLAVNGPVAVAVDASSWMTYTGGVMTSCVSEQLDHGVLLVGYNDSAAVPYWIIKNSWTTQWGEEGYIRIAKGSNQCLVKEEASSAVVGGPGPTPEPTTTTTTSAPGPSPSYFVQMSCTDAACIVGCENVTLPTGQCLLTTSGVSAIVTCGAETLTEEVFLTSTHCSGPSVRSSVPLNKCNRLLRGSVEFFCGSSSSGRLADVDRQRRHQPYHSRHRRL
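Detergent-free condition (0.00005% Triton X-100) in acetate buffer pH 5.5 with DTT. 1.5 nM enzyme and compound were pre-mixed 15 min, then 2 uM Z-FR-AMC substrate added; reaction progress from fluorescence change between first and third reads (60 s).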
RE007 growth inh = qHTS Assay for Inhibitors of the HIV-1 protein Vpr; hit rate 0.21% among 360,000; S. pombe RE007 Vpr strain, BacTiter-Glo ATP luminescence, 24 h; control for the full effect not named in the record; Potency, µM (titrated, usually from 92.2 µM), without a hit: top-dose activity change, negative = less growth; active = well fitted falling curve with a large enough effect; inconclusive = small, poorly fitted or top-dose-only effect; inactive = no such curve, though single readings can be large or run the other way;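 further: on the % scale 0 is the no-effect control and ±100 the full control effect; nearly all actives have a fitted effect of over 50% in size; the assay follows cell death caused by Vpr and the record does not say whether a fall means rescue or toxicity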
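Fission yeast RE007 carrying one integrated HIV-1 vpr copy, seeded at OD 0.01 in PMG+AL medium with 23 nL pinned compound. Grown 24 h at 30 degrees; viability read by BacTiter-Glo luminescence after 5 min.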
Lassa entry inh = qHTS for Inhibitors of binding or entry into cells for Lassa Virus; Lassa virus pseudotype entry inhibition, cell reporter; control for the full effect not named in the record; Potency, µM (series often up to 37.9 µM), for the others: at the top dose activity change, negative = inhibition, most hits filed as inhibitors; hit rate 1.2% among 300,000; active means well fitted inhibition curve with a large enough effect; inconclusive means small, poorly fitted or top-dose-only effect, or effect the other way; inactive means flat fitted curve, though single readings scatter; tested in HEK293 cells; further: on the % scale 0 is the no-effect control and ±100 the full control effect; nearly all actives have a fitted effect of over 50% in size; luciferase read-out
Cruzain Triton = qHTS Assay for Promiscuous and Specific Inhibitors of Cruzain (with detergent). hit rate 0.43% among 200,000. Potency, µM, for inactives: max response, negative = inhibition, hits mostly inhibitors. purified cruzain, Z-FR-AMC fluorescence, 0.01% Triton. AID 1478, 2009. Cruzipain (Trypanosoma cruzi), P25779; active means well fitted curve in the direction sought with a large enough effect; inconclusive means small, poorly fitted or top-dose-only effect, or another doubt; inactive means no such curve, though single readings can be large; an effect the other way counts as inactive or inconclusive;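 further: plate controls were neutral wells for no effect and buffer without enzyme for full effect; nearly all actives have a fitted effect of over 40% in size; top concentration of the series not given in the record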
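Detergent-containing arm of a paired screen for aggregation-based inhibition: 0.01% Triton X-100 present. Cruzain at 1.5 nM cleaved 2 uM Z-FR-AMC at pH 5.5 with 5 mM DTT; AMC fluorescence gain over 60 s measured activity.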
Starred values were filed as active, the others as inactive; ? = inconclusive; . = not tested or not shown; & = joins results of further samples; [ ] = remark or other dose. Unless noted, the call rests on the fitted dose curve; in most records, active means well fitted rising curve with a large enough effect; inconclusive means small, poorly fitted or top-dose-only effect; inactive means no such curve, though single readings can be large or run the other way. Potency means the concentration at half of the fitted maximal effect.

SMILES	NS1 function inh	2A StopGo	Marburg entry inh	SARS PLpro yeast	Cruzain noTriton	RE007 growth inh	Lassa entry inh	Cruzain Triton
CCOC(=O)CNC(=O)Cc1ccc(Cl)cc1	2%	9%	7%	0%	.	-4%	-2%	.
CSc1oc(-c2ccccc2)nc1S(=O)(=O)c1ccc(F)cc1	-9%	-30%	-1%&2%	-4%	-15%	15%	?	-3.8%
NC(N)=S	.	-11%	.	-2%	-1%	7%[18.4 µM]	.	4.3%
Cc1ccc(S(=O)(=O)c2cn(CC(=O)Nc3cccc(Cl)c3)c3ccccc3c2=O)cc1	.	32%[activator]	?	.	32µM*	.	-12%[46.1 µM]	-1.8%
COc1ccc(NC(=O)C2CC(c3ccc(Cl)cc3)=NO2)cc1OC (stereo not drawn)	17%	-15%	6%[46.1 µM]	-3%	.	3%	6%[46.1 µM]	.
Cn1cc(C(C[N+](=O)[O-])c2ccccc2)c2ccccc21 (stereo not drawn)	-9%	0%	.	-8%	.	0%	.	.
O=C(N/C(=C\c1ccccc1Cl)C(=O)N1CCOCC1)c1ccc([N+](=O)[O-])cc1	.	19%	0%[46.1 µM]	-3%	.	14%	.	.
CN(Cc1nc(-c2ccc(Cl)cc2)no1)S(=O)(=O)c1ccccc1	.	-25%	-1%[46.1 µM]	.	-1%	.	-18%[46.1 µM]	-6.4%
Cc1cc(C)c2c(=O)cc(C(=O)Nc3ccc(S(=O)(=O)Nc4onc(C)c4C)cc3)oc2c1	.	-13%	2%[46.1 µM]	.	-3%	.	35%[46.1 µM]	-26%
O=C1/C(=C\c2ccc3c(c2)OCO3)CCC/C1=C/c1ccc2c(c1)OCO2	-13%	3%	9%	0%	?	-20%	8%	-4.7%
COc1cc(C(=O)NCCOc2cccc3cccnc23)cc(OC)c1OC	.	14%	?	0%	.	29%	28%	.
COc1ccc(NC(=O)CSc2oc(-c3cccs3)nc2S(=O)(=O)c2ccc(Br)cc2)c(OC)c1	.	-11%	?	.	-7%	.	-1%[46.1 µM]	-9.8%
COc1ccc(CCN2CC(C(=O)NCCc3cn[nH]c3)CCC2=O)cc1 (stereo not drawn)	6%	-6%	25%	15%	.	1%	2%	.
Cc1oc(-c2ccccc2Cl)nc1CSCC(=O)NC1CC1	-22%	6%	?	-1%	-5%	21%	?	3.6%
COC(=O)c1cccc(CSc2nc(-c3ccccc3)c(C#N)c(=O)[nH]2)c1	4%	0%	.	0%	.	10%	.	.
CC(=O)Nc1cccc(C(=O)Nc2ccccc2N2CCOCC2)c1	5%	0%	?	-1%	2%	-3%	-6%	4.4%
CCC(O)(CC)C(=O)NN(C(=O)CCl)c1ccccc1	-7%	?	?	17%	4%	17%	-27%	2.8%
Cc1cc(Nc2ccc(F)cc2F)n2ncnc2n1	?	-21%	3%	-12%	8%	-9%	22%	2.7%
O=C(CSc1nc2scc(-c3ccco3)c2c(=O)n1-c1ccccc1)NCC1CCCO1 (stereo not drawn)	-26%	-14%	19%	-3%	20%	26%[3.69 µM]	-12%	-9.2%
CC1(C)Cc2c(C#N)c(SCCC#N)nc(N3CCOCC3)c2CS1	-3%	-20%	-23%	-8%	17%	7%	-2%	-4.3%
CCCn1c(NC(=O)C2COc3ccccc3O2)nc2ccccc21 (stereo not drawn)	2%	25%	-25%	1%	-13%	2%	8%	-1.0%
Cc1cc(NC(=O)CS(=O)(=O)c2cn(C)c3ccccc23)no1	2%	-16%	.	4%	-3%	-1%	.	4.4%
CCOC(=O)C1=C(C)N=C2c3ccccc3C(=O)C2C1c1ccc(Br)cc1 (stereo not drawn)	-3%	.	.	-5%	-8%	.	.	-8.3%
COC(=O)c1ccc(C(=O)OC)c(NC(=S)N2CCOCC2)c1	-1%	1%	7%[46.1 µM]	0%	.	0%	-1%	.
COc1ccccc1C(CNC(=O)COc1ccccc1C)N1CCCC1 (stereo not drawn)	.	-14%	?	-1%	.	-27%	1%	.
CN(C)S(=O)(=O)c1ccc(Cl)c(C(=O)Nc2ccccc2[N+](=O)[O-])c1	-4%	?	14%	9%	1%	.	-6%	0.9%
OC(CN1CCCCC1)Cn1c2ccccc2c2cc(Br)ccc21 (stereo not drawn)	3%	-25%	?	3%	.	6%	?	.
CC(C)(C)OC(=O)N1CCC(c2c(C(=O)N3CCN(c4ccccn4)CC3)cnn2-c2ccccc2)CC1	.	-4%	.	.	-18%	.	?	-0.5%
CN1CCN(CCCNC(=O)CCC(=O)N2CCOc3ccccc32)CC1	8%	-21%	.	-1%	.	9%	.	.
Cc1[nH]c(-c2ccc(F)cc2)cc1C(=O)N1CCN(c2cccc(Cl)c2)CC1	-52%	-21%	?	-6%	.	15%	?	.
Cc1cccc(N2C(=O)c3ccccc3C2=O)n1	0%	-20%	17%	1%	.	-9%	?	.
Cn1c(CNC(=O)CNS(=O)(=O)c2ccc(Cl)cc2)cc(=O)n(C)c1=O	3%	-1%	.	1%	.	0%	.	.
CC(C)Cc1oc(C(=O)O)cc1CN1CCOCC1	.	-5%	-1%[46.1 µM]	1%	.	22%	-18%	.
O=C(Nc1ccccn1)c1cc2ccccc2cc1O	-6%	41%[activator]	6%[46.1 µM]	-4%	.	-8%	13%[46.1 µM]	.
CCOC(=O)N1CCC(N2C(=O)c3ccccc3C2Nc2cc(C(=O)OC)cc(C(=O)OC)c2)CC1 (stereo not drawn)	-90%	0%	3%	-5%	?	-2%	.	-0.1%
O=C(COc1ccc(Cl)cc1Cl)c1ccc[nH]1	-5%	56%[activator]	.	0%	.	-10%	.	.
CCCCNc1ccc2c3c(cccc13)C(=O)N(CCCC)C2=O	6%	-12%	?	-1%	.	-13%	4%	.
CC(=O)Nc1ccc(C(=O)N(C)C(C(=O)Nc2ccccc2)c2ccccn2)cc1 (stereo not drawn)	-32%	-7%	15%	4%	-3%	-2%	-9%	2.8%
Cc1ccccc1NC(=O)c1ccc(CNS(=O)(=O)c2ccc3c(c2)C(C)(C)C(=O)N3C)cc1	.	8%	.	.	10%	.	-3%[46.1 µM]	0.0%
COC(=O)c1ccc(NC(=O)Cn2c(-c3nonc3N)nc3ccccc32)cc1	.	-6%&1%	?	1%	-13%	12%	-2%[46.1 µM]	-0.1%
Cc1ccc(N2C(=O)C(CN3CCCC3)C2c2ccccc2)cc1 (stereo not drawn)	-2%	-3%	?	-1%	.	-11%	.	.
Cc1occc1C(=O)N1CCN(Cc2ccccc2)CC1	?	.	0%	-1%	3%	-8%	10%	-3.2%
CC(C1CCN(Cc2cn(C)nc2-c2cccc(Cl)c2)CC1)N1CCOCC1 (stereo not drawn)	2%	?	.	0%	.	-4%	.	.
Cc1c(Cl)cccc1NC(=O)Nc1c(C)n(C)n(-c2ccccc2)c1=O	-6%	-15%	.	2%	.	-3%	.	.
CCOC(=O)c1nnn(-c2nc(OC)nc(N3CCCC3)n2)c1-c1ccccc1	-2%	?	11%	-3%	-8%	-19%	3%	-2.4%
COC(=O)Cc1cc(=O)n2[nH]c(C)cc2n1	-3%	-17%	-13%	-4%	-20%	117%	13%	1.5%
CCN(C(=O)CSc1cc(C)c2ccc(OC)cc2n1)C1CCS(=O)(=O)C1 (stereo not drawn)	-6%	-21%	.	1%	.	-1%	.	.
CC(C)=CCSc1nnc([C@@H](NC(=O)OC(C)(C)C)C(C)C)o1	-50%	-22%	1%	4%	3%	20%	-17%	-1.8%
C=CCNS(=O)(=O)c1cccc2cc(C(=O)O)c(O)cc12	0%	33%[activator]	-1%	1%	-2%	-4%	-13%	1.9%
CC12CN3CN(C1)CC(c1ccccc1)(C3)C2=O	12%	-14%	8%	6%	-6%	2%	-4%	0.7%

Additional records
SMILES	NS1 function inh	2A StopGo	Marburg entry inh	SARS PLpro yeast	Cruzain noTriton	RE007 growth inh	Lassa entry inh	Cruzain Triton
CC(C)(C)C(=O)Nc1ccc2nc(SCCOc3ccccc3Cl)sc2c1	.	?	-24%[46.1 µM]	.	-4%	.	?	-6.0%
S=C(NCCCCNC(=S)NCc1ccccc1)NCc1ccccc1	12%	19%	-4%[46.1 µM]	0%	.	-4%	-28%[46.1 µM]	.
CCN(C(=O)COC(=O)c1[nH]c(=O)[nH]c(=O)c1N)c1ccccc1	-2%	2%	19%[46.1 µM]	-6%	.	-1%	19%	.
O=C(c1ccco1)c1n[nH]nc1-c1ccccc1	-19%	4%	14%	-5%	-19%	-5%	-6%	1.7%
Cc1cn2c(=O)c(S(=O)(=O)Nc3ccc(OC(F)(F)F)cc3)c(C)nc2s1	.	?	.	.	?	.	21%[46.1 µM]	-13%
CCOC(=O)c1cccc(NC(=O)CC2C(=O)N(c3ccccc3)C(=O)N2Cc2ccco2)c1 (stereo not drawn)	.	-6%	.	.	2%	.	-29%[46.1 µM]	-4.4%
Cc1ccc(C(=O)NCC2CCCN2S(=O)(=O)c2ccc(C)cc2)cc1 (stereo not drawn)	.	11%	3%[46.1 µM]	2%	.	-5%	10%	.
O=c1nc2ccccc2c2n1CC(CN1CCN(C(c3ccccc3)c3ccccc3)CC1)N2 (stereo not drawn)	8%	?	?	3%	.	1%	-4%	.
NNC(=O)c1ccc(Cn2cc(Br)cn2)cc1	?	-12%	18%	-16%	-6%	-11%	?	-1.3%
O=S(=O)(c1ccc2c(c1)OCO2)N1CCN(c2nnnn2-c2ccccc2)CC1	-3%	-23%	0%	5%	14%	9%	-6%	5.6%
O=C(Nc1ccccc1)c1ccc(S(=O)(=O)N2CCCC2)cc1	-13%	11%	19%	6%	2%	-2%	-23%	0.6%
